Sfp inh – inhibitors of Bacillus subtilis Sfp phosphopantetheinyl transferase; Q9F4F7; Biochemical Sfp PPTase activity, qHTS; Potency, µM, for inactives: max response, negative = inhibition, most hits filed as inhibitors; actives 3.5% (n = 310,000); active = well fitted inhibition curve with a large enough effect; inconclusive = small, poorly fitted or top-dose-only effect, or another doubt; inactive = no such curve, though single readings can be large or run the other way;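 note: the enzyme is Sfp with the accession as filed and its product quenches rhodamine fluorescence; potency is the fitted concentration of half-maximal effect; 0% = enzyme reaction without inhibitor and -100% = no enzyme wells; top concentration of the series not given in the record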
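Step 1, compound plus 15 nM Sfp-PPTase, 15 min, room temperature. Step 2, add rhodamine-CoA (5 uM) and BHQ-2-YbbR (12.5 uM). Step 3, read 525/598 nm fluorescence at 0 and 30 min.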
PINK1 expr mod – changes PINK1 expression. Potency, µM (highest dose often 76.6 µM), without a hit: top-dose activation (PINK1 increase), hits mostly activators. PINK1 immunofluorescence, high-content cytometry, 24 h. actives 0.2% (n = 410,000); active = well fitted activation curve with a large enough effect; inconclusive = small, poorly fitted or top-dose-only effect; inactive = flat fitted curve, though single readings scatter; cell line not stated here;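 note: potency is the fitted concentration of half-maximal effect; % of control where 0% means no effect; nearly all actives have a fitted effect of over 65% in size; a mitochondrial uncoupler was the plate control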
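Cells are seeded, rested 12 hours, then given compound at five concentrations or DMSO for 24 hours. After fixation, blocking and antibody staining, PINK1 amount and mitochondrial localization are scored; CCCP serves as control.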
gsp agonist – activates gsp, the McCune-Albright syndrome mutation. gsp mutant cells, cAMP HTRF, 30 min; control for the full effect not named in the record. Potency, µM (titrated, usually from 76.9 µM), for the others: top-dose activation (cAMP increase), most hits filed as activators. actives 0.13% (n = 340,000). AID 624287; active = well fitted activation curve with a large enough effect; inconclusive = small, poorly fitted or top-dose-only effect, or another doubt; inactive = no such curve, though single readings can be large or run the other way; cell line not stated here;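 note: phosphodiesterase inhibitor Ro 20-1724 added with compounds to block cAMP breakdown; potency is the fitted concentration of half-maximal effect; nearly all actives have a fitted effect of over 60% in size; about a fifth of the inactives were tested at one dose only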
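Cells in DMEM/10% FBS with G418 were pretreated with compounds in DMSO plus […] (300 uM stock) for 30 min at 37C. cAMP was measured by HTRF (cAMP-d2 plus anti-cAMP antibody-K) after 30 min at room temperature.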
ClpP mod – qHTS Assay for Activators of ClpP. ATP-dependent Clp protease proteolytic subunit (Bacillus subtilis (strain 168)), P80244. purified B. subtilis ClpP, FRET peptide cleavage, 20 min. Potency, µM (series often up to 57.5 µM), without a hit: top-dose activity change, negative = active. actives 1.9% (n = 340,000). AID 651965, 2013; active = well fitted falling curve with a large enough effect; inconclusive = small, poorly fitted or top-dose-only effect; inactive = no such curve, though single readings can be large or run the other way; note: potency is the fitted concentration of half-maximal effect; the source files actives as falling curves though it sought activators and does not explain the sign; nearly all actives have a fitted effect of over 65% in size; many hits overshoot -100%
Target sequence (P80244 whole entry, looked up): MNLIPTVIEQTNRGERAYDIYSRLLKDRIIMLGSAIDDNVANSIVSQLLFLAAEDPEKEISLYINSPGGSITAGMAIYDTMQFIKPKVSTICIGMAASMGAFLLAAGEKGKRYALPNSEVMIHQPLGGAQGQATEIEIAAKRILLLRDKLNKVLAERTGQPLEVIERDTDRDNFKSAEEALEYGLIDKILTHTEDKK
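Buffer: 100 mM Tris/HCl pH8, 100 mM KCl, 0.05% low protease BSA, 2.5% glycerol, 0.01% Tween-20. ClpP 10 microg/mL final; 20 min RT; delta FRET normalized to ADEP and DMSO controls.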
Menin-MLL FL inh – menin-MLL binding inhibition, fluorescein peptide | Fluorescence polarization, fluorescein-MLL peptide displacement from menin | FP activity change, % at 61.4 µM | 290,000 tested, under 10 active | AID 1766; inconclusive = falling polarisation curve, or a change in total fluorescence; inactive = total fluorescence flat and polarisation flat or rising; no compound was filed as active; the % refers to the polarisation; negative = inhibition;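 note: % of control where 0% means no effect; inhibitors lower the polarisation; unlabelled MLL peptide was the positive control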
D2 agonist – human D2 receptor agonism in beta-arrestin assay; actives 0.084% (n = 360,000); P14416; activation, % (test concentration not listed); DiscoveRx PathHunter D2 beta-arrestin, luminescence, 90 min; 100% = 57 uM dopamine signal; AID 624465; in the data active = activation above about 40%; inconclusive = about 15% to 40%; inactive = below about 15%; note: compound concentration not given in the record; the text of the record calls up to 30% inactive
Target sequence (P14416 whole entry, looked up): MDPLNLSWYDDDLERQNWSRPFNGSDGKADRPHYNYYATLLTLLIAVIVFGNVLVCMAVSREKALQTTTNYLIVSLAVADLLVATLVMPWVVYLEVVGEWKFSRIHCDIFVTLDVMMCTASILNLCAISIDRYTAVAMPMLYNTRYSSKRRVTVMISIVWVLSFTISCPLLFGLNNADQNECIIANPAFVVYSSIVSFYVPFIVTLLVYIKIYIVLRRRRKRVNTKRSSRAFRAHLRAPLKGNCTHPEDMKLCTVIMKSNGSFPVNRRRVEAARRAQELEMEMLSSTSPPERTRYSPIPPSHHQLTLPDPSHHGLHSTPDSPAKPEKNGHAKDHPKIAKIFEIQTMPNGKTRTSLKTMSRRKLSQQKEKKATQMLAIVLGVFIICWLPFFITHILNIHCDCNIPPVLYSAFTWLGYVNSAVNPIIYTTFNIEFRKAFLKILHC
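Agonist mode: compounds alone added to overnight-plated D2 PathHunter cells for 90 min at 37 C, with 57 uM final dopamine (EC100) defining full response. Beta-arrestin recruitment detected by chemiluminescent reagent, read after 1 h at ambient temperature.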
gsp antag – antagonists of gsp mutant (McCune-Albright syndrome). gsp-mutant cells, cAMP HTRF, 30 min; control for the full effect not named in the record. actives 0.4% (n = 340,000). Potency, µM (highest dose often 76.9 µM), without a hit: at the top dose activity change, negative = inhibition, actives largely listed as inhibitors. AID 624288; active = falling curve of any shape with a large fitted effect; inconclusive = falling curve, mostly with a smaller effect; inactive = flat or rising curve; cell line not stated here;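 note: intracellular cAMP measured with PDE inhibitor Ro 20-1724 present during compound exposure; potency is the fitted concentration of half-maximal effect; % is set by controls: 0 for no effect and ±100 for the full control effect; nearly all actives have a fitted effect of over 65% in size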
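HTRF cAMP measurement after 30 min RT detection following 30 min, 37C compound treatment alongside […] (added as 300 uM solution) in G418-selected cells seeded at 2000/well and grown 16–24 h.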
An asterisk follows results filed as active; ? = inconclusive; nt = not tested or not shown; [ ] = dose if it differs, or a comment.

No.	Molecule	Sfp inh	PINK1 expr mod	gsp agonist	ClpP mod	Menin-MLL FL inh	D2 agonist	gsp antag
1	COCCCN(C(=O)c1ccc2ccccc2n1)c1c(N)n(Cc2ccccc2)c(=O)[nH]c1=O	nt	-1.1%	17%	-23%	nt	-2.6	0%
2	COc1ccccc1/C=C/C(=O)OCC(=O)Nc1ccc2c(c1)OCO2	nt	2.7%	-38%[inhibitor]	-28%	nt	-2.9	?
3	O=C(NC1CC2CCCC(C1)N2C(=O)Nc1cccc(F)c1)C1CC1 (stereo unspecified)	11%	-1.7%	0%	nt	-5.7	-1.2	5%
4	Cc1cc(C)c2c(=O)cc(C(F)(F)F)oc2n1	19%	1.1%	4%	-0.3%	-7.1	-2.5	-4%
5	COCCNC(=O)CCC1CCN(Cc2ccc(-c3ccccc3)cc2)CC1	1%	-0.8%	-127%	nt	0.4	0.7	21%
6	Cc1nc2ccccn2c(=O)c1NC(=O)COc1ccccc1	nt	2.5%	?	-16%	nt	0.5	nt
7	CCC1(C)Cc2c(C#N)c(N)n(N)c(=S)c2CO1 (stereo unspecified)	-16%	0.9%	5%	-7.0%	6.4	-2.6	-7%
8	CCOC(=O)c1cc(NC(=O)N2CCCc3ccccc32)c(C)nc1C	2%	-0.1%	-1%	?	2.8	-1.8	-1%
9	CS(=O)(=O)c1ccc(Cl)c(NC(=O)CN2C(=O)C3CCCCC3C2=O)c1 (stereo unspecified)	nt	-2.6%	5%	?	nt	-0.7	2%
10	O=[N+]([O-])c1cc(S(=O)(=O)N2CCCCC2)ccc1NCCN1CCOCC1	15%	0.9%	-19%[15.4 µM]	-2.4%	-5.4	-7.0	2%
11	N#CC(OC(=O)c1ccccc1)c1ccccc1 (stereo unspecified)	nt	0.5%	-16%	-1.4%	nt	-6.8	-9%
12	CCOC(=O)CNC(=O)/C(=C\c1ccc(F)cc1)NC(=O)c1ccccc1	16%	0.7%	-35%[15.4 µM]	-2.3%	4.0	-2.1	-2%
13	CN(C)C(=O)c1cccc(-c2cnc3c(NC=O)cc(-c4ccc(N(C)C)cc4)cn23)c1	nt	5.6%	nt	-7.2%	nt	9.5	nt
14	CC(=O)c1ccc(-c2cnc3c(NC=O)cc(-c4ccccc4Oc4ccccc4)cn23)cc1	nt	-0.9%	nt	6.1%	nt	-4.3	nt
15	O=[N+]([O-])c1ccc2c(c1)C(N1CCN(CCO)CC1)Cc1ccc(F)cc1S2 (stereo unspecified)	nt	-0.6%	nt	-0.7%	nt	-4.8	nt
16	Cc1cccc(C(=O)Nc2cccc(C(=O)N/N=C/c3ccncc3)c2)c1	5%	-1.0%	?	-0.5%	8.5	0.7	-9%
17	CN(CCCCOc1ccc(F)cc1)Cc1ccccc1	-24%	5.5%	3%	0.1%	3.2	-2.0	9%
18	Cc1ccc(NC(=S)NCc2cccnc2)cc1	2%	-0.1%	-38%[inhibitor]	0.7%	-4.0	-1.7	3%
19	Cn1c(CCN2CCN(c3ccccn3)CC2)nc2cc(NS(=O)(=O)c3ccccc3)ccc21	8%	0.5%	17%	-2.4%	-6.0	13	-27%
20	O=C(N[C@@H](Cc1ccccc1)C(=O)OCc1ccccc1)c1nc[nH]c1C(=O)NCc1ccccc1	14%	5.6%	-18%	-11%	-2.5	-7.1	-3%
21	CCCNC(=O)COCc1cc(-c2ccc3c(c2)OCO3)on1	11%	2.9%	15%	nt	-9.0	-5.9	-7%
22	CCOC(=O)c1c([N+](=O)[O-])c(C)[nH]c(=O)c1C#N	13%	6.6%	24%	nt	-17	-0.6	7%
23	CCOC(=O)C(C#N)C(=N)C1C(=O)OC2CCCCC21 (stereo unspecified)	nt	-0.6%	?	-0.7%	nt	-0.1	nt
24	Cc1ccc(S(=O)(=O)Nc2cc(=O)[nH]c(SCc3ccc(Cl)cc3)n2)cc1	-9%	7.7%	5%	-6.2%	9.7	4.9	-5%
25	COc1cccc(C(O)c2ncc(-c3ccccc3OC)[nH]2)c1 (stereo unspecified)	nt	1.1%	nt	-3.0%	nt	-2.7	nt
26	c1ccc(C2=Nc3ccccc3OC2)cc1	-4%	-0.2%	-4%	?	-0.9	-0.4	-16%
27	O=C(NC1CCCCCC1)C1CCN(C(=O)Cc2ccccc2)CC1	3%	0.8%	-34%[inhibitor]	-1.5%	-0.1	-0.7	0%
28	Cc1ccc(CNC(=O)C2CCN(S(=O)(=O)N3CC(C)CC(C)C3)CC2)cc1 (stereo unspecified)	-1%	4.1%	?	-2.2%	nt	-0.3	-6%
29	COc1cccc2[nH]c3c(=O)[nH]cnc3c12	18%	-2.5%	28%[15.4 µM]	27%	1.0	0.8	-3%
30	CCOC(=O)c1nn(-c2ccc(F)cc2)c(=O)c(C#N)c1C	4%	0.1%	-7%[15.4 µM]	-2.5%	-2.5	3.5	-6%
31	CC(C)Oc1c(Cl)cc(CNC(C)(C)CO)cc1Cl	-20%	nt	-5%	-0.6%	1.1	0.2	2%
32	COc1ccc(Cl)cc1S(=O)(=O)N(C)CC(=O)NCc1ccccn1	0%	0.7%	17%[15.4 µM]	nt	3.0	-2.1	-14%
33	CC(C)Oc1ccc(CC(=O)NNC(=S)Nc2ccc(Br)cc2)cc1	0%	-1.3%	-2%[15.4 µM]	-0.5%	0.3	-9.2	-11%
34	Cn1ccc(NC(=O)Nc2cccc([N+](=O)[O-])c2)n1	11%	-0.2%	-2%[15.4 µM]	nt	2.8	-2.7	-6%
35	Cc1ccc(S(=O)(=O)Nc2ccc3nc(C)sc3c2)cc1	-5%	-0.8%	?	0.0%	4.5	4.0	-14%
36	COc1cccc(CC2(CO)CCN(S(=O)(=O)N(C)C)CC2)c1	-4%	2.8%	-8%[15.4 µM]	1.5%	-0.8	-5.1	-8%
37	COc1ccc(-c2csc(N(CC3CCCO3)C(=O)c3cccs3)n2)cc1 (stereo unspecified)	19%	4.9%	3%	-7.2%	5.3	-1.2	-17%
38	Cc1nn(C)c(C)c1S(=O)(=O)N1CCCC(C(=O)NCC2COc3ccccc3O2)C1 (stereo unspecified)	0%	0.3%	-25%	-2.7%	0.8	-2.4	-1%
39	Cc1ccc(NS(=O)(=O)c2ccc(OCC(=O)NCc3cccnc3)cc2)cc1	-4%	-0.2%	-1%[15.4 µM]	0.8%	-2.7	0.5	16%
40	Cc1ccccc1NC(=O)c1cc2c(C)nc3ccccc3c2o1	5%	7.9%	-13%[15.4 µM]	nt	-0.6	-1.2	-12%
41	COc1ccc(NC(=O)c2cc(C)n(Cc3cccs3)c2C)cc1	-6%	1.4%	-3%	nt	2.8	-2.7	8%
42	CC1(c2ccccc2Cl)NC(=O)N(CC(=O)Nc2cccnc2Cl)C1=O (stereo unspecified)	nt	7.1%	?	0.9%	nt	-6.5	-15%
43	COCCCNC(=O)c1ccc2sc([C@@H]3O[C@H](CO)[C@H](O)[C@H](O)[C@H]3O)nc2c1	nt	-0.3%	nt	-3.7%	nt	-5.6	nt
44	COc1ccc(CCNc2ccc(S(=O)(=O)N3CCCC3)cc2[N+](=O)[O-])cc1	7%	-0.3%	12%[15.4 µM]	-1.8%	4.2	-6.2	-9%
45	O=C(NCc1nc2ccccc2[nH]1)C1=C[C@H](c2ccc3c(c2)OCO3)C[C@H](OCc2ccc(CO)cc2)O1	26%	0.6%	nt	-12%	?	3.3	-7%
46	COC(=O)Cc1c(CSc2ccccc2)oc2ccc(O)c(CN(C)C)c12	-9%	5.1%	-31%[inhibitor]	nt	-1.8	-1.6	9%
47	CCOc1ccc(-n2ccnc(SCC(=O)Nc3ccc(OC)cc3OC)c2=O)cc1	nt	1.7%	-2%	7.2%	nt	-4.2	-3%
48	COc1cc(OC)c(NC(=O)c2csc(C)c2)cc1Cl	-1%	0.2%	19%	1.1%	2.2	-1.1	-14%
49	O=C(OCC(=O)N1c2ccccc2Sc2ccccc21)C1CC(=O)N(Cc2ccco2)C1 (stereo unspecified)	-24%	1.2%[38.3 µM]	25%	-1.2%	3.0	0.4	-6%
50	O=C(Cc1cccs1)N/N=C\c1ccc(O)cc1	9%	-1.5%	-11%	-13%	1.0	-1.8	2%
51	C=CCNC(=S)N/N=C/c1ccc(-c2ccc(OC)cc2)o1	-8%	-2.4%	7%[15.4 µM]	-2.3%	6.5	-3.0	-9%
52	CC(C)COC(=O)NCCOC(=O)Nc1cccc(Cl)c1	4%	-1.4%	3%	-3.2%	-0.3	0.7	-39%
53	Cc1cc(=O)n2[nH]c(NCc3ccccc3F)nc2n1	16%	-1.7%	-11%	nt	1.9	-0.2	-3%
54	CCN(CC)C(=O)C1CC(c2ccc(OC)cc2)=NO1 (stereo unspecified)	3%	0.2%[38.3 µM]	3%	-0.4%	0.3	-1.9	-1%
55	CCOC(=O)c1c(CSc2ccccc2)oc2ccc(O)cc12	-9%	6.8%	?	-1.1%	9.6	-2.6	-24%
56	COc1cccc2c1C(=O)C[C@]1(CCCC[C@@H]1C)O2	nt	5.6%	21%	-20%	nt	-1.7	-5%
57	COc1ccc(C=O)cc1CN1CCCN(Cc2ccc(Cl)cc2)S1(=O)=O	-4%	1.1%	-4%[15.4 µM]	nt	2.2	-2.2	4%
58	C[C@@H](CO)NC(=O)[C@H]1O[C@@H](n2ccc(=O)[nH]c2=O)[C@H](O)[C@@H]1O	nt	-1.4%	nt	0.8%	nt	-5.4	nt
59	COc1ccc(-c2csc3nc(C)nc(N4CCN(c5ccc(C(C)=O)cc5)CC4)c23)cc1OC	-9%	2.1%	19%	nt	-1.1	0.3	-19%

Screening results from PubChem.
